Source: PubChem BioAssay
D2 ag – activates the human D2 dopamine receptor; actives 0.084% (n = 360,000); P14416; activation, % (no concentration beside the values); DiscoveRx PathHunter D2 beta-arrestin, luminescence, 90 min; 100% = 57 uM dopamine signal; in the data active = activation above about 40%; inconclusive = about 15% to 40%; inactive = below about 15%; also: compound concentration not given in the record; the text of the record calls up to 30% inactive
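Agonist mode: compounds alone added to overnight-plated D2 PathHunter cells for 90 min at 37 C, with 57 uM final dopamine (EC100) defining full response. Beta-arrestin recruitment detected by chemiluminescent reagent, read after 1 h at ambient temperature.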
CtBP-E1A blk – CtBP/E1A binding inhibition | actives 0.49% (n = 340,000) | AlphaScreen GST-E1A/His-CtBP binding, 1536-well; stronger effect = lower value; control for the full effect not named in the record | activity change, % (test concentration not listed); in the data active means activity change below about -65%; inconclusive means about -30% to -65%; inactive means above about -30%; also: % is scaled to controls: 0 for no effect and ±100 for the full control effect; compound concentration not given in the record
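Protein mix (5X: 125 nM each GST-E1A, His-CtBP) was incubated with pinned compound 2 h at 37 deg C in dark, in 50 mM Tris pH 8.0 buffer with 300 mM NaCl. Glutathione donor and nickel acceptor beads followed; AlphaScreen signal read after 1 h.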
Six1-Eya2 blk – Six1/Eya2 interaction inhibition; Q15475+O00167; AID 651725; activity change, % (no concentration beside the values); actives 0.56% (n = 360,000); AlphaScreen GST-Six1/His-Eya2 binding, biochemical; stronger effect = lower value; control for the full effect not named in the record; in the data active = activity change below about -65%; inconclusive = about -30% to -65%; inactive = above about -30%; also: % is scaled to controls: 0 for no effect and ±100 for the full control effect; compound concentration not given in the record
Target sequence (O00167 whole entry, looked up): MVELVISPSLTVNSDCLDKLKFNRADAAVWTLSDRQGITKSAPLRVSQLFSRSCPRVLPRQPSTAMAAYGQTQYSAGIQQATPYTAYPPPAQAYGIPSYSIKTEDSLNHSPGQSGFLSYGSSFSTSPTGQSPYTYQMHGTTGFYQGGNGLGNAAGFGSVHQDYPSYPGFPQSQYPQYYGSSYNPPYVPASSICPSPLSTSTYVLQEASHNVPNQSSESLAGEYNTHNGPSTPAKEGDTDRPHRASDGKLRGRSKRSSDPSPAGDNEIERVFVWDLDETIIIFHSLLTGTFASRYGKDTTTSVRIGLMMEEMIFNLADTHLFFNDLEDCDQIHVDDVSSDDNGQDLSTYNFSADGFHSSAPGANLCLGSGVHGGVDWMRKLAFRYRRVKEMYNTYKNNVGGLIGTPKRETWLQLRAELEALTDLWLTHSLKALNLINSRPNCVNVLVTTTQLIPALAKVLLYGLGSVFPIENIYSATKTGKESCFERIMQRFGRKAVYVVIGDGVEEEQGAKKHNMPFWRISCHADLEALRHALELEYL
Target sequence (Q15475 whole entry, looked up): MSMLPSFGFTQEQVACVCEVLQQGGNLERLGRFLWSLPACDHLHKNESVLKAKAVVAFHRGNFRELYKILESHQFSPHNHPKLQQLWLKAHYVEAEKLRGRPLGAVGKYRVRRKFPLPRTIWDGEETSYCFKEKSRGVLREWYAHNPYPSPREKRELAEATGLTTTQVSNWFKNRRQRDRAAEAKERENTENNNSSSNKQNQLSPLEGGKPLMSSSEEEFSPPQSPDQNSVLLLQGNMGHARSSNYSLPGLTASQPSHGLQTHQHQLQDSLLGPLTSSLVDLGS
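Compounds are tested against tagged Six1 and Eya2 proteins bridged by glutathione donor and nickel acceptor beads; after a one-hour incubation at 37 °C without light, AlphaScreen emission is recorded.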
TRPML1 ag – human mucolipin-1 channel agonism. TRPML1-expressing cells, Ca2+ dye fluorescence, FDSS; host cell line not named in the record; reference of the full effect not given here. actives 0.12% (n = 410,000). AID 624414. Q9GZU1. activation, % (concentration not given with the values); in the data active = activation above about 50%; inconclusive = about 30% to 50%; inactive = below about 30%; also: 0% is about no effect; the text of the record puts the active cut at 80%
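Agonist activity was taken from a 110 s kinetic Ca2+ dye read on the FDSS after pinning compounds onto TRPML1-DL cells. The cells were seeded at 1,500/well with Tet inducer, incubated about 16 h, then dye-loaded at room temperature.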
D2 potentiator – potentiates the human D2 dopamine receptor allosterically; potentiation, % (concentration not given with the values); P14416; DiscoveRx D2 beta-arrestin cells, luminescence, 90 min; 100% = 57 uM dopamine signal; AID 624464; actives 0.23% (n = 360,000); active = potentiation of 50% or more; inconclusive = 30% to 50%; inactive = 30% or less;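 also: compound concentration not given in the record; tested on top of an EC20 dose of dopamine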
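PathHunter D2 cells, attached overnight at 37 deg C, received compound in DMSO plus dopamine at EC20 (50 nM final) for 90 min at 37 deg C. Beta-arrestin recruitment was read as luminescence after 1 h with detection reagent at ambient temperature.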
PINK1 modulator – PINK1 expression modulation | PINK1 immunofluorescence, high-content cytometry, 24 h | Potency, µM (titrated, usually from 76.6 µM), without a hit: top-dose activation (PINK1 increase), most hits filed as activators | actives 0.2% (n = 410,000) | AID 624263; active = well fitted activation curve with a large enough effect; inconclusive = small, poorly fitted or top-dose-only effect; inactive = flat fitted curve, though single readings scatter; cell line not stated here;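 also: potency is read from the fitted curve at half-maximal effect; % of control where 0% means no effect; nearly all actives have a fitted effect of over 65% in size; a mitochondrial uncoupler was the plate control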
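Decision-based qHTS: stable cells, 24 h exposure to five compound concentrations, CCCP as control. Fixed cells stained for PINK1 plus nuclear, mitochondrial and cell markers, cytometer read.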
* = called active by the depositor; ? = inconclusive; · = not tested or not shown; & = joins results of further samples; [ ] = another dose, or the depositor's remark.

SMILES	D2 ag	CtBP-E1A blk	Six1-Eya2 blk	TRPML1 ag	D2 potentiator	PINK1 modulator
Oc1ccc(-c2csc(Nc3ccccn3)n2)cc1O	?	·	-24	-1.6	1	27%
COc1cccc(CN(C)C(=O)C2CC(=O)N(c3ccc4c(c3)OCCO4)C2)c1 (configuration not stated)	-1.5	2	3	-0.5	-4	2.5%
CC(C)C(=O)Nc1ccc(NC(=O)c2cc3ccccc3o2)cc1	-1.1	35	17	-0.2	-6	15%[38.3 µM]
Cc1csc(SCC(=O)NC2CCC(C)CC2)n1 (configuration not stated)	-3.9	3	-2	-0.5	-22	0.7%
CCn1nc(C)c(/C=N/NC(=O)Cn2nc(C)cc2C)c1C	-4.1	-2	8	-0.2	-6	-1.4%
CCn1c(SCC(=O)Nc2cccnc2Cl)nnc1-c1ccccc1	11	3	6	2.0	5	?
O=C(c1cc2cc(Br)ccc2[nH]1)N1CCc2ccccc21	7.1	8	-1	0.0	-10	0.4%
CCN(c1ccccc1)S(=O)(=O)c1ccc2c(c1)N(C(C)=O)CCO2	2.0	3	-3	-0.4	-3	0.1%
Cc1ccc(CSc2nnc(Cn3c(=O)sc4ccccc43)n2C)cc1	-6.0	2	-2	-0.2	-2	0.6%
Cc1ccc(Cn2c(=O)c3cccnc3n(CC(=O)Nc3cccc(C(F)(F)F)c3)c2=O)cc1	-2.5	26	27	1.6&1.5	-1	-0.7%&2.7%
CC1CCN(c2ccc(S(=O)(=O)N3CCC(C)CC3)cc2N)CC1	-0.9	-7	1	-0.6	5	0.0%
O=c1c2c([nH]n1-c1ccccc1)C[C@@H](C1CCCCC1)O[C@H]2c1ccc(F)cc1	·	-2	-8	-0.6	·	3.0%
C[n+]1ccc(/C=C/c2c[nH]c3ccc(F)cc23)cc1	-13	0	4	15	-10	16µM*
CN1CCN(S(=O)(=O)c2cccc(C(=O)Nc3ccc(Br)cc3Br)c2)CC1	-2.2	0	-9	0.6	13	-2.0%
COc1cc(CN2CCNC(=O)C2CC(=O)N2CCCN(C(C)=O)CC2)cc(OC)c1 (configuration not stated)	-2.8	7	5	-0.3	4	0.6%
Cc1noc(C)c1S(=O)(=O)N(CCc1ccccc1)Cc1ccccc1	-0.4	33	33	2.2	-3	2.3%
O=C(/C=C/c1ccccc1)N1CCCN(C(=O)/C=C/c2ccccc2)CC1	-2.7	6	-1	1.4	-2	-1.1%
Cc1cc(=O)oc2cc(OCC(=O)NC3CC(C)(C)NC(C)(C)C3)ccc12	-3.1	0	-3	-0.7	-3	0.1%
C[C@@H]1CN([C@H](C)CO)C(=O)CCCn2nncc2CO[C@H]1CN(C)S(=O)(=O)c1cccc(F)c1	-9.9	2	5	-0.2	-4	0.3%
COc1ccc(CCNC(=O)CNS(=O)(=O)c2ccc(F)c(Cl)c2)cc1OC	-3.2	4	-1	0.2	0	0.5%
Cc1nn(C)c(Cl)c1CN1CCCC(C(=O)Nc2cccc(-n3cccn3)c2)C1 (configuration not stated)	-2.1	-2	-10	-0.3	-40	1.6%
CC1CCCCN1S(=O)(=O)c1ccc(C(=O)Nc2nnc(-c3ccccc3Cl)o2)cc1 (configuration not stated)	1.4	-6	0	8.0	-2	-0.3%
N[C@@H](Cc1ccc(O)cc1)c1nnc([C@H](CC(=O)O)NC(=O)C2CCNCC2)o1	0.1	-23	-16	-0.2	-8	1.1%
CN(C(=O)Cn1cc([N+](=O)[O-])ccc1=O)C1CCCCC1	-3.1	17	6	-0.4	4	1.5%
O=C(N/N=C/C1CC=CCC1)c1cc(Br)ccc1O (configuration not stated)	-1.6	0	-11	-0.2	-5	1.6%

Just Six1-Eya2 blk, for some of the entries so far:
SMILES,Six1-Eya2 blk
Cc1nn(C)c(Cl)c1CN1CCCC(C(=O)Nc2cccc(-n3cccn3)c2)C1 (configuration not stated),-10
O=c1c2c([nH]n1-c1ccccc1)C[C@@H](C1CCCCC1)O[C@H]2c1ccc(F)cc1,-8
CC1CCN(c2ccc(S(=O)(=O)N3CCC(C)CC3)cc2N)CC1,1
Cc1ccc(CSc2nnc(Cn3c(=O)sc4ccccc43)n2C)cc1,-2

Other results follow:
SMILES	D2 ag	CtBP-E1A blk	Six1-Eya2 blk	TRPML1 ag	D2 potentiator	PINK1 modulator
O=C(CN1CCOCC1)Nc1c(-c2ccccc2)c2cc(Br)ccc2[nH]c1=O	1.7	-5	0	-0.2	5	-2.2%[38.3 µM]
CCc1ccccc1N(C)S(=O)(=O)c1ccc2[nH]cc(C(=O)N3CCc4ccccc43)c(=O)c2c1	1.5	2	2	0.9	7	13%
CC(C)CNC(C)C(=O)Nc1ccc(S(N)(=O)=O)cc1 (configuration not stated)	-1.6	0	4	-0.4	0	3.7%
Fc1ccc(CNCCC(Cc2ccccc2)c2ccco2)cc1 (configuration not stated)	-6.2	0	-10	3.1	-18	14%
CCOC(=O)N1CCC(NCCNC(=O)c2cccc(F)c2)CC1	-1.7	1	6	-0.6	-21	0.3%
O=C(Nc1ccc2c3c(cccc13)CC2)c1ccc(Br)o1	-1.6	-5	-3	-1.0	-3	15%
O=C(Nc1cccn2ncnc12)c1ccccc1	-2.4	-1	1	-0.9	-6	-1.5%
COc1cc(C(=O)NCC(=O)OCc2ccccc2Cl)cc(OC)c1OC	6.7	-3	1	3.3	-7	2.3%
Cc1c(OC(C(=O)O)c2ccccc2)ccc2c(-c3ccccc3)cc(=O)oc12 (configuration not stated)	1.0	-11	-14	-0.3	-2	-3.4%
Cc1cccc(NC(=O)c2ccc(S(=O)(=O)NCc3cccnc3)cc2)c1	0.0	27	4	-1.9	-7	-0.4%
CCOC(=O)C1CCCN(C(=O)c2ccc(CS(=O)(=O)c3ccc(Br)cc3)o2)C1 (configuration not stated)	-2.4	4	-2	0.1	0	2.1%
CCN(CC)C(=O)CSc1nc2ccccc2o1	1.6	4	6	1.0	5	-0.9%
Cc1cccc(-c2oc3ccc(-c4ccc5c(c4)OCO5)cc3c2/C=C/c2ccc(N)cc2)c1	-1.8	0	27	-0.3	0	3.4%
Cc1ccc(NC(=S)NC2CCCC2)cc1	-0.9	-10	-18	0.0	0	0.1%
CCOC(=O)N1CCN(C(=O)C(C)N(c2ccccc2)S(C)(=O)=O)CC1 (configuration not stated)	-3.2	-11	9	-0.6	-6	-0.7%
CC(C)(C)NC(=O)NC(=O)COC(=O)Cn1c(C(F)(F)F)nc2ccccc21	-1.8	-15	5	1.0	10	-1.8%
CCOC(=O)CN1C(=O)S/C(=C/c2ccc(OCc3ccc(C(=O)O)cc3)cc2)C1=O	0.8	5	12	-0.6	3	2.6%
Cc1cc(C)c(OCC(=O)OCC(=O)NCCC2=CCCCC2)c(C)c1	-6.1	15	2	2.6	-19	3.2%
Cc1ccc(Cl)cc1N1CCN(C(=O)C2CCN(S(=O)(=O)c3cccnc3)CC2)CC1	3.1	7	-4	1.4	16	-1.6%
Cc1cccc(NC(=O)C2CCN(C(=O)NCc3ccccc3)CC2)c1C	0.0	-3	0	0.5	-4	2.3%
CC(=O)Nc1ccc2c(c1)Cc1ccc(Cl)cc1-2	-5.8	7	13	0.6	-8	1.7%
CCN(CC)CCCN(Cc1cc2cc3c(cc2[nH]c1=O)OCO3)C(=S)NC	0.8	-4	-2	0.0	-13	-1.1%
C[C@H](NC(=O)c1ccccc1)C(=O)N1CCN(Cc2ccc3c(c2)OCO3)CC1	1.9	1	3	2.5	-1	0.3%
Cc1cccc(C)c1NC(=O)CNC(=O)CNC(=O)c1ccc2ccccc2c1	-2.6	-20	8	0.2	-17	0.3%
O=C(Nc1ccccc1C(=O)N1CCCCCC1)c1ccc(Cl)cc1	-13	-3	1	-0.4	-9	0.2%

One compound at a time, from the list above.
Record of `Cc1c(OC(C(=O)O)c2ccccc2)ccc2c(-c3ccccc3)cc(=O)oc12` (configuration not stated) = D2 ag = 1.0; CtBP-E1A blk = -11; Six1-Eya2 blk = -14; TRPML1 ag = -0.3; D2 potentiator = -2; PINK1 modulator = -3.4%
Record of `O=C(CN1CCOCC1)Nc1c(-c2ccccc2)c2cc(Br)ccc2[nH]c1=O` = D2 ag = 1.7; CtBP-E1A blk = -5; Six1-Eya2 blk = 0; TRPML1 ag = -0.2; D2 potentiator = 5; PINK1 modulator = -2.2%[38.3 µM]
Record of `CC(C)(C)NC(=O)NC(=O)COC(=O)Cn1c(C(F)(F)F)nc2ccccc21` = D2 ag = -1.8; CtBP-E1A blk = -15; Six1-Eya2 blk = 5; TRPML1 ag = 1.0; D2 potentiator = 10; PINK1 modulator = -1.8%

Carrying on:
SMILES	D2 ag	CtBP-E1A blk	Six1-Eya2 blk	TRPML1 ag	D2 potentiator	PINK1 modulator
CC(C)CC(NC(=O)C(NC(=O)OC(C)(C)C)C(C)C)C(=O)NC(CCC(=O)OCc1ccccc1)C(N)=O (configuration not stated)	-2.6	2	4	-1.5	7	2.9%
CC(=O)c1ccc(N2CCN(C(=O)CN3C(=O)NC4(CCCCC4)C3=O)CC2)c(F)c1	1.0	7	3	1.4	-1	2.5%
Cc1cccc(OCCCC(=O)Nc2ccc(S(=O)(=O)N3CCCC3)cc2)c1	2.9	-1	8	1.7	-12	-0.6%
COc1ccccc1-n1cnnc1SCC(=O)NC1CCCCC1	4.0	8	5	2.4	-3	3.4%
Cc1ccc(Cn2c(SCC(C)C)nc3c2c(=O)[nH]c(=O)n3C)cc1	-1.9	-3	-3	0.0	-18	11%
CN1C(=S)SC(/[N+]([O-])=C/c2cccnc2)C1(C)C (configuration not stated)	0.9	5	3	0.0	-17	0.3%
Cc1cc(-c2onc(C)c2C(=O)N/N=C/c2ccccc2)no1	-1.5	4	2	3.3	-7	1.5%
COc1ccc(OC)c2[nH]c(=O)c(CCNC(=O)c3ccc4c(c3)OCO4)cc12	0.3	-3	0	0.3	0	-0.4%
CC(C)CCOc1ccc(C(=O)N2CCCC2C(=O)O)cc1 (configuration not stated)	-3.8	0	1	-0.4	-11	-1.4%
CCOc1ccc(CN2CCN(CC(O)Cn3c4ccccc4c4ccccc43)CC2)cc1 (configuration not stated)	-1.6	-2	6	0.8	-4	-0.5%
COc1ccc(OC)c(NC(=O)CCN2C(=O)c3cccc([N+](=O)[O-])c3C2=O)c1	8.6	6	-3	0.7	-1	1.0%
CC1(C(=O)Nc2ccc3c(c2)OCCO3)CCN1C(=O)c1ccco1 (configuration not stated)	4.4	7	0	-0.7	-4	2.0%
O=C1NN=COc2ccccc21	-3.9	-5	0	0.0	1	0.6%
O=C(CCC(=O)N(Cc1ccco1)C(C(=O)NC1CCCC1)c1ccncc1)Nc1cccnc1 (configuration not stated)	-5.3	-3	11	0.2	-8	1.6%
COc1cccc(CNC(=O)CN(C)S(=O)(=O)c2ccc3c(c2)n(C)c(=O)c(=O)n3C)c1	-3.4	1	3	-0.5	1	-0.3%
O=C(OC(C(=O)NCc1ccco1)c1ccc(Cl)cc1)c1cccs1 (configuration not stated)	-4.3	·	-3	1.9	-15	-0.6%
CCN1CCN(c2cc(C)c3cc(NC(=S)N4CCN(c5ccc(F)cc5)CC4)ccc3n2)CC1	1.3	1	8	-0.4	-4	8.4%
COc1ccccc1Nc1nc(N)nc(CSC(=S)N2CCOCC2)n1	-0.2	2	-13	0.8	-12	-1.4%
CC12COC3(C(=O)Nc4ccc([N+](=O)[O-])cc4)CC1CCC32C (configuration not stated)	1.9	3	-10	-1.0	-9	2.4%
